Vaccinia mCherry: inhibitors of vaccinia virus infection (mCherry reporter signal); Potency, µM (titrated, usually from 36.5 µM), for inactives: top-dose activity change, negative = inhibition, usual class: inhibitors; Vaccinia virus mCherry reporter infection, fluorescence; about a quarter of the inactives have no number; 0.63% of 310,000 active; AID 720579; active = well fitted inhibition curve with a large enough effect; inconclusive = small, poorly fitted or top-dose-only effect; inactive = no such curve, though single readings can be large or run the other way; tested in A549 cells; note: nearly all actives have a fitted effect of over 35% in size; inactives centre near -10
Vaccinia Venus: inhibitors of vaccinia virus (Venus reporter). Vaccinia virus Venus reporter expression, fluorescence. Potency, µM (series often up to 36.5 µM), for the others: top-dose activity change, negative = inhibition, actives largely listed as inhibitors. 0.46% of 330,000 active. AID 720580; active means well fitted inhibition curve with a large enough effect; inconclusive means small, poorly fitted or top-dose-only effect; inactive means no such curve, though single readings can be large or run the other way; tested in A549 cells; note: nearly all actives have a fitted effect of over 30% in size; inactives centre near -10
Numbers without * were called inactive; i = inactive; u = inconclusive; x = not tested or not shown; & = joins results of further samples; [ ] = another dose, or the depositor's remark. % is set by controls: 0 for no effect and ±100 for the full control effect; potency is the fitted concentration of half-maximal effect.

Below each SMILES – Vaccinia mCherry, Vaccinia Venus
- COc1ccc(NC(=O)c2cc(C3CCCCN3C(=O)c3cccs3)on2)c(C)c1 (configuration not stated)
    14.5%, -1.8%
- Cc1ccc(S(=O)(=O)CC(=O)N2CCN(c3ccc(F)cc3)CC2)cc1
    u, -6.8%
- Cc1ccc(OCCNc2cc(N3CCN(CCO)CC3)ccc2[N+](=O)[O-])cc1C
    u, u
- CN1CCC(C(=O)C(=O)O)C1=O (configuration not stated)
    -12.8%, -9.5%
- C1=NN(c2ccccc2)C=NN1c1ccccc1
    -23.5%, 2.2%
- CC(Oc1ccc(Cl)cc1Cl)c1ccnc2nc(N3CCOCC3)nn12 (configuration not stated)
    i, -12.3%
- COc1ccc(CNC(=O)C2CCCCN2S(=O)(=O)c2ccc(F)cc2)cc1 (configuration not stated)
    -7.0%, -0.9%
- Cc1ccccc1C(C(=O)NCc1ccco1)N(CC1CCCO1)C(=O)Cn1nnc2ccccc21 (configuration not stated)
    x, -11.8%
- CCCCNC(=O)CSc1nc2n[nH]c(C)c2c(=N)n1-c1cccc(C)c1
    -14.6%, -16.0%
- Cc1ccc(-c2nc3c(cnn3-c3ccccc3)c(=O)n2-c2cccc(Cl)c2)cc1
    -20.9%, -5.3%
- O=c1cc(-c2ccccc2)oc2cc(O)c(O)cc12
    i, -7.1%
- Nc1ccn(CCCN2CCN(C(=O)C3CC3)CC2)c(=O)n1
    -1.1%, -2.1%
- COc1cc(S(=O)(=O)NC2CCCCC2C)ccc1F (configuration not stated)
    i, -13.3%
- Cc1ccc(-c2nc3cccnc3s2)cc1NS(=O)(=O)c1cccs1
    -2.5%, -11.3%
- O=C(O)c1ccc(-c2ncc[nH]2)cc1
    9.7%, 2.2%
- CCc1ccc(NC(=O)Cn2c(=O)n(CCC(=O)NCCc3ccc(OC)c(OC)c3)c(=O)c3ccccc32)cc1
    26.6%, 16.9%
- CCc1cc2c(=O)[nH]c(COC)nc2s1
    -18.2%, -14.5%
- Cc1cc(C)nc(NCc2ccc(Cl)cc2)n1
    -7.7%, -17.4%
- COc1ccc(CNC(=O)C2CCN(S(=O)(=O)Cc3ccccc3)CC2)cc1
    -8.5%, -2.4%
- Cc1nc(=O)c(-c2ccccc2)c(C)n1CCCCCC(=O)O
    x, -4.0%
- Cc1cnc(C(=O)N2CCCC(N3CCN(c4cccc(C(F)(F)F)c4)CC3)C2)cn1 (configuration not stated)
    u, -26.9%
- C=CCn1cc(-c2cccc(C(F)(F)F)c2)cc(C#N)c1=O
    -25.3%, -16.5%
- O=[N+]([O-])c1ccc(NC(=S)N2CCN(S(=O)(=O)c3ccccc3)CC2)cc1
    -11.5%, -15.1%
- COC(=O)N1CCCCC1c1cc(C(=O)NCc2ccccc2)no1 (configuration not stated)
    -10.1%, -0.4%
- CCc1nnc(NC(=O)CSc2nnc3c4ccccc4n(C)c3n2)s1
    i, -1.9%
- CC(NC(=O)COC(=O)c1ccc(N(C)C)cc1)c1ccccc1 (configuration not stated)
    -15.8%, -13.8%
- CC(C)C[C@H]1CN([C@@H](Cc2ccccc2)CN2CCC[C@H]2CN2C(=O)C(=O)NC[C@@H]2Cc2ccccc2)C(=O)C(=O)N1CCc1ccccc1
    -12.2%, -17.2%
- O=c1[nH]c(=O)n2c(c1-c1ccccc1)OC(CBr)C2 (configuration not stated)
    i, -11.7%
- CCCCn1c(O)c(C(=O)/C=C/c2c[nH]c3ccccc23)c(=O)[nH]c1=O
    -1.8%, 0.9%
- CC(C)CN1C(=O)c2ccc(C(=O)Nc3ccc(OCC(=O)O)cc3)cc2C1=O
    -22.3%, 4.3%

Going on with the list:
Below each SMILES – Vaccinia mCherry, Vaccinia Venus
- Cc1c(/C=N/NC(=O)c2ccc(Br)o2)cnn1C
    i[7.34 µM], -9.4%[7.34 µM]
- O=C(NC1CCCCC1)c1ccc(-c2ccc(Cl)cc2)o1
    u, u
- CCC(C)/C(C)=N/NC(=O)c1ccc(CSc2nc3ccccc3s2)cc1 (configuration not stated)
    -26.1%, -24.8%
- CCCc1nnc(SCC(=O)N2CCOCC2)n1CC1CCCO1 (configuration not stated)
    i, -7.9%
- O=C(COC(=O)CCc1ccccc1)Nc1ccccc1OC(F)F
    i, 2.4%
- O=C(Nc1ccccc1)c1ccc(NCC2CCCO2)c([N+](=O)[O-])c1 (configuration not stated)
    10.2%, -6.9%
- CCOC(=O)CSc1nc(N)c(C#N)cc1C#N
    -7.4%, -1.1%
- Cc1ccc(C(C(=O)NC2CCCC2)N2CCc3ccccc32)cc1 (configuration not stated)
    -14.6%, -20.5%
- O=C(CN1CCN(Cc2ccccc2Cl)CC1)N=Nc1c(O)[nH]c2ccccc12
    i, -14.6%
- N/C(Cc1ccc(Cl)cc1Cl)=N\OC(=O)c1ccc(Br)o1
    -14.7%, -5.4%
- Cc1cccc(C)c1-n1nnnc1C1(C)CCC(=O)N1Cc1cccnc1 (configuration not stated)
    -12.5%, -3.5%
- O=C(CCN1C(=O)[C@@H]2Cc3ccccc3CN2C1=O)N[C@@H](C(=O)O)c1ccccc1
    3.3%, 3.1%
- COc1ccccc1-c1nnc(SCC(=O)NC2CCCCC2)o1
    11.2µM*, u
- Cc1ccc(S(=O)(=O)N2CCc3ccccc3C2CN2C(=O)c3ccccc3C2=O)cc1 (configuration not stated)
    -26.3%, -16.7%
- CC1CCC(NC(=O)COC(=O)CSc2ccc(C(N)=O)cc2[N+](=O)[O-])CC1 (configuration not stated)
    -6.0%, -1.4%
- CN(C)C(=O)CCC(=O)N1CCCC(C(=O)c2ccc3c4c(cccc24)CC3)C1 (configuration not stated)
    -17.1%, -15.3%
- O=C(c1cccs1)N1CCC(c2nc3c(nnn3Cc3ccccc3Cl)c(=O)[nH]2)CC1
    -10.9%, -5.9%
- CC(OC(=O)C1CC(=O)N(Cc2ccco2)C1)C(=O)Nc1ccccc1[N+](=O)[O-] (configuration not stated)
    i, -5.0%
- CCN(CC(=O)NC(=O)NC1CCCCC1)Cc1ccccc1
    i, -15.9%
- Cc1cccc(NC(=O)N(Cc2cc3cc(C)cc(C)c3[nH]c2=O)CC2COCCO2)c1 (configuration not stated)
    -1.4%, -25.3%
- Cc1nc(N=C(N)N)nc2c(C)cccc12
    -27.1%, -17.6%
- CCC(=O)NC(=S)Nc1ccc(NC(=O)c2ccco2)c(Cl)c1
    -3.1%, -0.7%
- CCOC(=O)C(C)(C)n1nnc(-c2ccc([N+](=O)[O-])cc2)n1
    u, 1.9%
- O=C(CSc1ncnc2c1cnn2-c1ccc(F)cc1)NCc1ccc2c(c1)OCO2
    -9.5%, 2.4%
- O=c1nccc(N/N=C/c2cccc(O)c2)[nH]1
    i, -11.9%
- CC(C)[C@@H](C(=O)O)N(Cc1cccc(CN([C@H](C(=O)O)C(C)C)S(C)(=O)=O)c1)S(C)(=O)=O
    i, -21.8%
- O=C(COC(=O)c1ccc(O)cc1)c1ccc2c(c1)OCCO2
    -12.6%, -8.1%
- S=C(Nc1ccccc1)N1CCN(Cc2ccccc2)CC1
    -0.8%, -15.3%
- Cn1c(=O)c2c(-c3ccccc3)n(Cc3ccccn3)cc2n(C)c1=O
    -17.1%, -4.6%
- CC(=O)Oc1c2c(c3c(c1CC=C(C)C)O[C@@]14C(=CC5CC1C(C)(C)OC4(C/C=C(\C)C(=O)O)C5=O)C3=O)OC(C)(CCC=C(C)C)C=C2 (some centres not stated)
    u, u

(more compounds)
Below each SMILES – Vaccinia mCherry, Vaccinia Venus
- O=C(c1ccccc1)c1c[nH]c(C(=O)NNc2cccc(Cl)n2)c1
    -27.0%, -14.0%
- Cc1ccccc1C(=O)N1CCCCC1CCN1CCCCC1 (configuration not stated)
    -6.4%, 1.3%
- O=C(CSc1nnc(-c2ccc(Br)cc2)o1)Nc1cccc(C(=O)O)c1
    i, -7.3%
- C[C@@H]1CN([C@@H](C)CO)C(=O)CCCn2cc(nn2)CO[C@H]1CN(C)C(=O)CCCN(C)C
    -19.5%, -2.2%
- Cc1c(C(=O)Nc2cccc(S(=O)(=O)N3CCOCC3)c2)oc2ccccc12
    -0.7%, -14.0%
- O=C(NCc1ccc(Cl)cc1)C1CCN(S(=O)(=O)c2ccccc2)CC1
    -5.3%&-20.6%, -7.0%&-18.5%
- N=C1SCC(=O)N1/N=C/c1ccccc1
    -12.8%, 1.0%
- CCc1nc2ccc(C(=O)Nc3ccc(NC(C)=O)cc3)cn2c1N(CCC(C)C)CCN(C)C
    10.0%, -16.9%
- O=C(CSc1nc(O)cc(=O)[nH]1)N1CCCc2ccccc21
    -12.2%, -11.5%
- CC1CC(Cl)CCC1C(=O)OC(C)(C)C (configuration not stated)
    i, 0.0%
- COc1ccc(C2CC=C(C(C)=O)CN2S(=O)(=O)c2ccc(C)cc2)cc1 (configuration not stated)
    16.1%, -16.5%
- NC(=O)NOCc1c(Cl)cccc1Cl
    i, -14.7%
- CC(C)(C)n1nnnc1C(c1ccccc1)N1CCN(C(=O)c2ccco2)CC1 (configuration not stated)
    -3.4%, -4.5%
- Cc1nc2cc(NC(=O)NCc3ccco3)ccc2n1C
    -10.4%, -6.9%
- Cc1ccc(C(=O)Nc2nc(C(N)C(C)C)cs2)cc1 (configuration not stated)
    -14.3%, -13.9%
- CCOC(=O)C1CCN(C(=O)COC(=O)c2nc3nc(C)cc(C)n3n2)CC1
    -18.7%, -5.6%
- Cc1cc(C)c(C)c(S(=O)(=O)NCc2ccncc2)c1C
    -7.8%, -7.5%
- CCc1ccccc1NC(=O)COC(=O)C1C2CC3OC(=O)C1C3C2 (configuration not stated)
    i, 13.8%
- CCc1nn(CC(=O)N2CCN(CC)CC2)c(=O)c2cc3sccc3n12
    -11.2%, -6.3%
- Cc1cccc(OCCC(=O)OCC(=O)Nc2c(C)nn(-c3ccccc3)c2C)c1
    -13.2%, -9.6%
- CC1(C)CC(=O)C(N=Nc2c(F)cccc2F)=C(O)C1
    -19.2%, -12.8%
- C=CCn1c(=NC(=O)c2ccc(S(=O)(=O)N3CCCC3)cc2)sc2cc(NC(C)=O)ccc21
    i, -6.5%
- O=C(CCCn1c(=O)c2ccccc2n(CC(=O)Nc2cccc(Cl)c2)c1=O)NCc1ccc2c(c1)OCO2
    -7.1%, 0.6%
- Cc1oc(-c2ccccc2Cl)nc1Cn1c(SCc2cccc(F)c2)nc2cccnc21
    -5.8%, -8.9%
- COc1cc(C2C(Oc3ccccc3C)C(=O)N2Cc2ccc(F)cc2)cc(OC)c1OC (configuration not stated)
    i, -5.8%
- COc1ccc(C)cc1N(CC(=O)N1CCCC1)S(C)(=O)=O
    -17.2%, -13.9%
- Oc1c(Cl)cc(Cl)cc1CNc1ccccn1
    -15.4%, -6.8%
- CSCCC(NC(=O)c1ccccc1)C(=O)N(C)CC(=O)Nc1ccc(N2CCOCC2)cc1 (configuration not stated)
    i, -8.8%
- CCOc1nc(-c2ccccc2)ccc1-c1noc(-c2ccco2)n1
    -12.8%, -8.5%
- Cc1cc(C)nc(N2CCC(C(=O)NC3CC3)CC2)n1
    i, -2.1%

(more compounds)
Below each SMILES – Vaccinia mCherry, Vaccinia Venus
- COc1cc(C2C=C(C(=O)O)Nc3ncnn32)ccc1O (configuration not stated)
    -2.0%, 0.5%
- NC(=O)COC(=O)c1ccc(NS(=O)(=O)c2ccc3c(c2)OCCO3)cc1
    1.0%, -9.7%
- Cc1cn2c(=O)cc(COC(=O)c3cccc(NC(=O)c4ccc(C(C)(C)C)cc4)c3)nc2s1
    -10.1%, -14.5%
- CC(C)CN(C(=O)CN1CCc2ccccc21)c1c(N)n(CC(C)C)c(=O)[nH]c1=O
    -1.8%, -11.2%
- O=C(N/N=C/c1cccc([N+](=O)[O-])c1)c1cc2c(ccc3ccccc32)o1
    -21.4%[1.46 µM], -1.0%
- CCOc1ccc(S(=O)(=O)N2CCCC(C(=O)N3CCOCC3)C2)cc1Cl (configuration not stated)
    -2.8%, -14.0%
- C=CCOc1ccc(/C=N/NC(=O)CN(c2cc(Cl)ccc2OC)S(=O)(=O)c2ccc(C)c([N+](=O)[O-])c2)cc1
    i, -16.9%
- CC1CC2(C)C(=CC1=O)CCC1C2C(O)CC2(C)C1CCC2(O)C(=O)CO (configuration not stated)
    -21.6%, 3.3%
- Clc1cccc(CN2CCCCCC2)c1Cl
    i, 2.0%
- COc1ccc(NC(=O)c2c(NC(=O)COc3ccc(Cl)cc3)sc3c2CCCCC3)cc1
    -21.2%, -17.6%
- Nc1cc(=O)nc(SCC(=O)Nc2ccc(F)cc2)n1-c1cccc(Cl)c1
    -2.8%, -8.4%
- O=C(NCC1CCCO1)C(c1cccs1)N(Cc1ccccc1Cl)C(=O)c1ccc(-c2ccccc2)[nH]1 (configuration not stated)
    -13.9%, u
- COc1ccc(C(=O)N(C)CC(=O)Nc2cccc(F)c2)cc1S(=O)(=O)NC1CCCC1
    -7.5%, -8.5%
- COc1cc(C(=O)NC(C)c2cc(C)ccc2C)ccc1OCC(=O)N1CCOCC1 (configuration not stated)
    -18.3%, -9.6%
- Cc1nc2nc(SCC(=O)c3ccccc3)[nH]c2cc1Br
    -10.9%, -10.2%
- COc1ccccc1N(CC(=O)Nc1ccccc1C(=O)NCC(C)C)S(C)(=O)=O
    i, -10.9%
- CCCn1nnc(NC(=O)c2ccccc2Cl)n1
    i, -7.3%

Single records, from the list above.
Results for Cc1cn2c(=O)cc(COC(=O)c3cccc(NC(=O)c4ccc(C(C)(C)C)cc4)c3)nc2s1 : Vaccinia mCherry: -10.1%; Vaccinia Venus: -14.5%
Results for COc1ccccc1N(CC(=O)Nc1ccccc1C(=O)NCC(C)C)S(C)(=O)=O : Vaccinia mCherry: i; Vaccinia Venus: -10.9%
